Screening data (PubChem BioAssay)
YB-1 expression – YB-1 expression inhibition | U2OS, qRT-PCR YB-1 vs CDIP delta delta Cp, 16 h; active compounds read high; zero = DMSO, each unit about twofold | 30,000 compounds, 0.37% hits | AID 434959 | delta delta Cp (YB-1 minus CDIP) (test concentration not listed);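 active = delta delta Cp rounded down to an integer at or above 3, about 3 SD of DMSO wells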;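 also: higher means less YB-1 transcript or more CDIP transcript relative to DMSO; stock transfer was 100 nL into about 100 µL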
MITF inhib – inhibitors of MITF; TRPM1 promoter luciferase, luminescence, 24 h; inhibition, % (concentration not given with the values); 37,000 compounds, 0.28% hits;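 active = most replicates at 85% or more, or half of them and the mean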;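 also: human melanocyte line stably carrying TRPM1 promoter luciferase reporter; 0% = vehicle wells and 100% = a positive control; the first replicate is given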
Hedgehog inh – Sonic Hedgehog pathway inhibition; Shh-LIGHT2 Gli-luciferase reporter, 30 h; inhibition, % (concentration not given with the values); AID 2313; 22,000 compounds, 2.1% hits;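 active = replicate mean of 65% or more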;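 also: pathway switched on by Shh-conditioned medium diluted 1 in 25 in low serum; 100 nL library stock added to about 40 µL; 0% = median of neutral wells and 100% = positive control level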
PD-1 reverse act – reversal of PD-1 mediated T-cell inhibition | primary human CD4 T cells, PD-L1 beads, CellTiter-Glo 96 h | activation, % (no concentration beside the values) | 29,000 tested, under 10 active | AID 2316;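 active = replicate mean of 50% or more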;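 also: 0% = median vehicle wells and 100% = positive control; 100 nL library stock added to about 50 µL; numbers are from one replicate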
Active calls of the source: *; . = no result given.

SMILES	YB-1 expression	MITF inhib	Hedgehog inh	PD-1 reverse act
CN(C)CCN(Cc1ccc(Cl)cc1)c1ccccn1	1.82	6.4	-12.6	3.0
C[C@@H]1CN([C@H](C)CO)C(=O)c2cc(NC(=O)Cc3cn(C)c4ccccc34)ccc2O[C@H]1CN(C)S(C)(=O)=O	-0.193	7.4	.	-1.9
O=C(Nc1ccccc1SCCS(=O)(=O)c1ccc(Cl)cc1)c1ccccc1Cl	0.328	4.6	22.7	-0.6
CC(=O)N/C(=C\c1cccs1)C(=O)O	-0.383	1.8	.	-0.1
C[C@@H]1CCCCO[C@@H](CN(C)C(=O)CCCN(C)C)[C@@H](C)CN([C@H](C)CO)C(=O)c2cc(NS(=O)(=O)c3cn(C)cn3)ccc2O1	0.212	-15.2	.	0.3
COc1cc(C2c3c(cc(OC)c(O)c3OC)CC(CO)C2CO[C@@H]2O[C@H](CO)[C@@H](O)[C@H](O)[C@H]2O)cc(OC)c1O (some centres not stated)	0.693	16.6	-16.2	-0.1
COCc1cc(O)c(O)c(O)c1-c1c(COC)cc(O)c(O)c1O	0.377	-5.7	26.5	-3.3
CC(OC(=O)c1cccc(Cl)c1)c1ccc[n+](C)c1 (configuration not stated)	0.715	-3.3	-37.6	0.4
Cc1cc(C(=O)Nc2cccc3c2O[C@H](CN(C)CC2CCCCC2)[C@H](C)CN([C@@H](C)CO)C3=O)n(C)n1	0.543	-15.3	-0.5	1.5
CC(C)NC(=O)N(C)C[C@@H]1Oc2ccc(NS(=O)(=O)c3ccc(Cl)cc3)cc2C(=O)N([C@H](C)CO)C[C@H]1C	0.31	-1.2	-27.6	0.7
COc1cc([N+](=O)[O-])ccc1NC(=O)CS(=O)(=O)Cc1ccccc1	.	-21.4	.	-0.7
C[C@@H]1CN([C@@H](C)CO)C(=O)c2cccc(NC(=O)c3ccncc3)c2O[C@@H]1CN(C)Cc1ccc(C(=O)Nc2ccccc2N)cc1	-0.439	-0.4	.	-0.5
COc1ccc(CN(C)C[C@H]2Oc3ccc(NC(=O)Nc4ccc(F)cc4)cc3C(=O)N([C@@H](C)CO)C[C@H]2C)cc1	0.17	-10.9	7.3	-0.1
COc1ccc(S(=O)(=O)N(C)C[C@@H]2Oc3c(cccc3N(C)C)C(=O)N([C@@H](C)CO)C[C@H]2C)cc1	0.227	3.5	-9.3	.
CC(=O)OC[C@]12[C@H](OC(C)=O)[C@H](OC(C)=O)[C@@H]3[C@@H](OC(C)=O)[C@@]14O[C@@]3(C)COC(=O)c1ncccc1CC[C@H](C)C(=O)O[C@@H]([C@H](O)[C@@H]2OC(=O)c1ccccc1)[C@]4(C)O	-0.379	50.0	32.6	-6.4
C[C@H]1CN([C@@H](C)CO)C(=O)Cc2cc(N(C)C)ccc2O[C@H]1CN(C)C(=O)Nc1ccc2c(c1)OCO2	-0.267	-6.2	-12.2	.
O=C(O)CCC/C=C\C[C@@H]1CO[C@H](C(F)(F)F)O[C@@H]1c1ccccc1O	0.0922	3.2	-31.1	.
Cc1ccc(C)c(NC(=O)c2ccc(OCC(=O)Nc3cccc(Cl)c3)cc2)c1	.	-17.9	.	3.5
C[C@@H]1CN([C@@H](C)CO)C(=O)Cc2cc(NS(=O)(=O)c3cccs3)ccc2O[C@@H]1CN(C)Cc1ccc2c(c1)OCO2	-0.266	-7.5	-21.5	0.2
C[C@H]1CN([C@@H](C)CO)C(=O)c2cc(NC(=O)Nc3ccccc3)ccc2O[C@H]1CN(C)Cc1ccncc1	0.392	-18.6	30.3	0.5
O=c1c2ccccc2ncn1CCCOc1ccccc1[N+](=O)[O-]	.	-36.5	.	-1.5
Cc1cc(C(=O)Nc2cccc3c2O[C@H](CN(C)C(=O)Nc2ccc4c(c2)OCO4)[C@H](C)CN([C@H](C)CO)C3=O)n(C)n1	0.112	-9.7	-2.3	-0.6
C[C@@H]1CCCCO[C@H](CN(C)Cc2ccc(C(F)(F)F)cc2)[C@@H](C)CN([C@H](C)CO)C(=O)c2cc(NS(C)(=O)=O)ccc2O1	-0.0326	2.7	-12.0	.
Cc1ccc(S(=O)(=O)N(C)C[C@@H]2Oc3ccc(NC(=O)Cc4cn(C)c5ccccc45)cc3C(=O)N([C@H](C)CO)C[C@H]2C)cc1	-0.285	25.0	.	.

For reference, some entries already given.
SMILES	YB-1 expression	MITF inhib	Hedgehog inh	PD-1 reverse act
COc1ccc(CN(C)C[C@H]2Oc3ccc(NC(=O)Nc4ccc(F)cc4)cc3C(=O)N([C@@H](C)CO)C[C@H]2C)cc1	0.17	-10.9	7.3	-0.1
COc1ccc(S(=O)(=O)N(C)C[C@@H]2Oc3c(cccc3N(C)C)C(=O)N([C@@H](C)CO)C[C@H]2C)cc1	0.227	3.5	-9.3	.
CC(=O)OC[C@]12[C@H](OC(C)=O)[C@H](OC(C)=O)[C@@H]3[C@@H](OC(C)=O)[C@@]14O[C@@]3(C)COC(=O)c1ncccc1CC[C@H](C)C(=O)O[C@@H]([C@H](O)[C@@H]2OC(=O)c1ccccc1)[C@]4(C)O	-0.379	50.0	32.6	-6.4
C[C@H]1CN([C@@H](C)CO)C(=O)Cc2cc(N(C)C)ccc2O[C@H]1CN(C)C(=O)Nc1ccc2c(c1)OCO2	-0.267	-6.2	-12.2	.
O=C(O)CCC/C=C\C[C@@H]1CO[C@H](C(F)(F)F)O[C@@H]1c1ccccc1O	0.0922	3.2	-31.1	.

New compounds follow:
SMILES	YB-1 expression	MITF inhib	Hedgehog inh	PD-1 reverse act
CC(C)c1ccc(OCC(=O)Nc2cc(C(=O)O)cc(C(=O)O)c2)cc1	.	-0.8	.	2.0
Cc1cccc(OCC(O)CNC(C)(C)CO)c1C (configuration not stated)	.	-1.1	.	-0.2
COc1cc(NC(=O)CN(C)S(=O)(=O)c2ccc(C)cc2)cc(OC)c1	.	1.0	.	0.9
COC(=O)c1c(NC(=S)NCc2ccco2)sc2c1CCC(C)C2 (configuration not stated)	.	-38.7	.	-4.2
CCOC(=O)CSc1c(-c2cccs2)[nH]c2ccccc12	-0.356	37.0	-15.0	-2.9
C[C@H]1CN([C@@H](C)CO)C(=O)Cc2cc(NC(=O)Nc3ccc(C(F)(F)F)cc3)ccc2O[C@H]1CN(C)Cc1ccccc1	-0.0507	39.1	3.7	.
COc1ccc(S(=O)(=O)N(C)C[C@H]2Oc3c(NS(C)(=O)=O)cccc3C(=O)N([C@H](C)CO)C[C@@H]2C)cc1	0.118	-3.7	12.2	2.2
C[C@@H]1CN([C@@H](C)CO)C(=O)Cc2cc(NS(=O)(=O)c3ccccc3)ccc2O[C@@H]1CN(C)C(=O)Nc1cccc2ccccc12	0.436	-17.1	12.8	-0.5
COc1cc(COc2ccc3c4c(c(=O)oc3c2)CCC4)cc(OC)c1OC	0.0399	11.0	-15.0	1.6
C[C@H](CO)N1C[C@H](C)[C@H](CN(C)C(=O)Nc2ccccc2)Oc2c(NS(=O)(=O)c3cn(C)cn3)cccc2C1=O	0.26	0.0	-28.8	1.4
CCN(CC)CCCn1c(-c2ccc(C)cc2)cn2c3ccccc3nc12	.	5.2	.	-3.2
CC(NS(=O)(=O)c1ccccc1)C(=O)Nc1cc(Cl)ccc1Oc1ccccc1 (configuration not stated)	.	-2.2	.	-2.2
CC1CCCCC1NC(=O)CSc1nnc(N)s1 (configuration not stated)	.	-1.5	.	3.2
Cc1nc(N)nc(CSc2ccccc2)n1	-0.105	-25.5	-36.5	-10.6
CC(C)NC(=O)Nc1ccc2c(c1)C(=O)N([C@H](C)CO)C[C@@H](C)[C@H](CN(C)Cc1ccccc1)O2	0.229	-1.1	-22.1	1.5
COc1cc(CNC2CCCC2)cc(I)c1OCC(N)=O	.	-21.7	.	2.8
Cc1cc(C(=O)Nc2cccc3c2O[C@H](CN(C)C(=O)Nc2ccc(F)cc2)[C@@H](C)CN([C@H](C)CO)C3=O)n(C)n1	-0.428	-7.4	7.5	-0.2
COc1ccc(S(=O)(=O)Nc2ccc3c(c2)C(=O)N([C@H](C)CO)C[C@@H](C)[C@@H](CN(C)CC2CC2)O3)cc1	-0.216	-4.9	15.2	.
CCOc1ccccc1CNCc1ccccn1	.	-13.6	.	1.1
Cc1cc(C)c(NC(=O)CN(C)S(=O)(=O)c2ccccc2)c(C)c1	.	-19.2	.	-0.2
Cc1cc(C(F)(F)F)nc(SCC(=O)Nc2ccc(Cl)cc2)n1	.	-7.5	.	0.1
COc1ccc(S(=O)(=O)N(C)C[C@H]2Oc3c(NC(=O)C4CCCCC4)cccc3C(=O)N([C@@H](C)CO)C[C@H]2C)cc1	0.088	-2.6	17.5	0.2
COc1ccc(NC(=O)N(C)C[C@H]2Oc3ccc(NC(=O)Cc4cn(C)c5ccccc45)cc3C(=O)N([C@@H](C)CO)C[C@@H]2C)cc1	0.132	15.0	-12.0	0.4
C[C@@H]1CN([C@H](C)CO)C(=O)c2cccc(NS(=O)(=O)c3cn(C)cn3)c2O[C@@H]1CN(C)C(=O)Nc1ccccc1	-0.395	-2.7	26.8	1.1
C[C@H]1CN([C@@H](C)CO)C(=O)c2cccc(NC(=O)NC3CCCCC3)c2O[C@H]1CN(C)S(=O)(=O)c1cccs1	-0.0113	0.5	24.1	.
C[C@H](CO)N1C[C@H](C)[C@@H](CN(C)Cc2ccc3c(c2)OCO3)Oc2ccc(NC(=O)NC3CCCCC3)cc2C1=O	0.0564	10.9	.	-0.4
C[C@@H]1CCCCO[C@@H](CN(C)C(=O)Nc2cccc3ccccc23)[C@@H](C)CN([C@H](C)CO)C(=O)c2cc(NC(=O)c3ccncc3)ccc2O1	-0.104	8.3	-11.3	0.8
CNS(=O)(=O)c1cc(OCC(N)=O)c(C)cc1Cl	.	-14.8	.	0.5
CC(C)Cn1c(=S)[nH]c2ccccc2c1=O	-0.237	-4.7	-22.0	-2.5
COc1ccc(CN(C)C[C@H]2Oc3ccc(NS(=O)(=O)c4cn(C)cn4)cc3CC(=O)N([C@H](C)CO)C[C@H]2C)cc1	0.154	-5.4	-1.2	1.1
C[C@H]1CN([C@@H](C)CO)C(=O)c2cc(NS(=O)(=O)c3ccc(F)cc3)ccc2O[C@H]1CN(C)Cc1ccc(Oc2ccccc2)cc1	-0.176	-7.9	.	0.5
Cc1noc(C)c1NC(=O)Nc1cccc2c1O[C@H](CN(C)S(=O)(=O)c1ccc(Cl)cc1)[C@H](C)CN([C@H](C)CO)C2=O	-0.528	-9.5	-30.7	1.3
COc1ccc(C)cc1S(=O)(=O)N(CC(=O)O)c1cc(C)cc(C)c1	.	-11.0	.	0.9
C[C@@H]1CN([C@@H](C)CO)C(=O)c2cccc(NS(=O)(=O)c3cn(C)cn3)c2O[C@H]1CN(C)Cc1ccc(C(F)(F)F)cc1	-0.573	6.8	-1.2	1.2
C[C@H](CO)N1C[C@H](C)[C@H](CN(C)C(=O)Nc2cccc3ccccc23)Oc2ccc(NS(=O)(=O)c3cccs3)cc2C1=O	0.549	-12.3	-4.6	-1.6
C[C@@H]1CN([C@H](C)CO)C(=O)c2cc(NS(=O)(=O)c3cn(C)cn3)ccc2O[C@H]1CN(C)C(=O)Nc1ccc2c(c1)OCO2	-0.24	-4.0	0.6	1.0
C[C@H](CO)N1C[C@H](C)[C@H](CN(C)S(=O)(=O)c2cccs2)Oc2c(NS(=O)(=O)c3ccccc3)cccc2C1=O	-0.536	-5.7	15.7	1.6
Cc1ccc(S(=O)(=O)N(C)C[C@H]2OCCCC[C@@H](C)Oc3ccc(NC(=O)C4CCCCC4)cc3C(=O)N([C@H](C)CO)C[C@@H]2C)cc1	0.204	0.0	-31.4	.
CC(C)NC(=O)Nc1cccc2c1O[C@@H](CN(C)C(=O)NC1CCCCC1)[C@@H](C)CN([C@@H](C)CO)C2=O	-0.494	15.0	14.5	2.0
COc1ccc2c3c([nH]c2c1)[C@H]1C[C@H]2[C@H](C[C@@H](O)[C@H](OC)[C@H]2C(=O)O)CN1CC3	0.0518	-2.3	-11.5	.
Cc1cc(SCC(=O)NN)c(C)cc1Cl	0.24	-5.1	-4.0	1.0
Cc1cccc(N2C(=O)CC(SCc3nc4ccccc4[nH]3)C2=O)c1 (configuration not stated)	.	13.6	.	-2.3
O=C(CSc1ccccn1)N1CCN(S(=O)(=O)c2ccccc2)C1	-0.00627	2.3	-35.2	2.1
Cc1ccc(S(=O)(=O)N(C)C[C@@H]2Oc3ccc(NC(=O)C4CC4)cc3C(=O)N([C@H](C)CO)C[C@@H]2C)cc1	0.169	-12.2	5.8	-4.1
OCCN1CCN(CC(O)COc2ccc(Cl)cc2)CC1 (configuration not stated)	.	-12.6	.	0.9
CC(C)NC(=O)N(C)C[C@H]1Oc2c(NC(=O)c3nc4ccccc4s3)cccc2C(=O)N([C@H](C)CO)C[C@@H]1C	-0.236	-9.3	2.6	-0.9
Cc1ccccc1C(=O)N1N=C(c2ccc(Br)cc2)CC1c1nc2ccccc2[nH]1 (configuration not stated)	-0.247	11.0	.	-0.7
C[C@@H]1CN([C@H](C)CO)C(=O)Cc2cc(NS(=O)(=O)c3cccs3)ccc2O[C@@H]1CN(C)CC1CC1	-0.0742	-30.5	-24.8	.
C[C@@H]1CN([C@@H](C)CO)C(=O)c2cc(NS(C)(=O)=O)ccc2O[C@H]1CN(C)Cc1ccncc1	-0.498	-4.2	-20.8	.
COc1ccc(CN(C)C[C@@H]2Oc3ccc(NC(=O)Cc4cn(C)c5ccccc45)cc3C(=O)N([C@H](C)CO)C[C@@H]2C)cc1	0.0425	10.9	-9.2	-1.8
Cc1cc(=O)[nH]c(SCC(=O)Nc2ccnc3ccccc23)n1	.	17.5	.	1.3

A portion of the library; count on the stated rates, not on these rows.
